Bioassay records deposited in PubChem by several laboratories.
MT1-MMP act inh: blocks activation of human MT1-MMP | P50281 | HT1080 RFP-PRO-GFP cells, GFP/RFP ratio fluorescence, overnight; percent of plate control window, DMSO zero | GFP/RFP ratio change, % at 20 µM | actives 0.061% (n = 360,000);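 active means GFP/RFP ratio change of at least 30% with cell ATP level not reduced by more than half and red fluorescence within 50% of control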; further: strong numbers were not always called active
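Assay system – RFP-PRO-GFP reporter HT1080 cells · Compound dosing – single dose of 20 µM compound, 1% DMSO final · Incubation – overnight compound exposure at 37 °C · Measure – GFP/RFP fluorescence ratio · Benchmarks – DMSO wells and RFP-L50D-GFP cells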
CSC inhib: blocks cancer stem cells | cancer stem cell-like cells viability, luminescence | inhibition, % at 7.5 µM | actives 1.1% (n = 300,000) | AID 2717;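 active means mean at 75% or more and at least half the replicates too; tested in HMLE shEcad cells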;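 further: 0% = median of negative and 100% = median of positive control wells; the first replicate is given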
PABP FP inh: PABP-poly(A) binding inhibition; P11940; PABP-poly(A) RNA binding, fluorescence polarization; inhibition, % at 35 µM; actives 1% (n = 290,000);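 active means 50% or more with normal probe brightness, or confirmed in later tests; about a fifth of its hits are not listed in these tables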;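 further: calls also rest on retests at 20 µM and on dose response follow-up; controls were probe without protein and protein plus probe with vehicle; some compounds called inactive have numbers as strong as hits; many hits fall short of the cut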
HIV Env fusion: HIV envelope-mediated fusion inhibition; inhibition, % at 12.3 µM; actives 1.1% (n = 360,000); HeLa-JRFL Env/CEM21 cell fusion, luciferase; AID 651610;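 active means mean replicate inhibition score of at least 50 and every replicate individually at or above 50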;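 further: 0% = plate neutral controls and 100% = maraviroc near 300 nM; one replicate is shown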
eIF4H inh: inhibitors of RNA binding by human eIF4H; Q15056; actives 0.94% (n = 290,000); inhibition, % at 35 µM; eIF4H fluorescence polarization binding assay; AID 2012;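 active means 50% or more with normal probe brightness, or confirmed in later tests; about a fifth of its hits are not listed in these tables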;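 further: calls also rest on retests at 20 µM and on dose response follow-up; 0% = protein and probe with vehicle and 100% = probe without protein; strong numbers were not always called active; many hits fall short of the cut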
Yeast UUG start: modulators of start codon recognition fidelity in yeast; activity score, % at 18.7 µM; S. cerevisiae UUG-firefly luciferase reporter, luminescence/redox ratio; AID 602363; actives 0.13% (n = 350,000);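 active means replicate mean at a twofold rise or more, about +100% in these data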;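 further: firefly luciferase made from a UUG start codon reports start codon fidelity; reporter light over untreated wells divided by growth signal over untreated wells; some hits fall short of that in this replicate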
Rce1 inhib: yeast Ras-converting enzyme inhibition | Q03530 | yeast membranes, quenched prenylated peptide cleavage fluorescence | calls only | actives 0.27% (n = 290,000) | AID 2563;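 active means fall in fluorescence gain of 50% or more versus controls, with final raw signal at or below 3038400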;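 further: plate controls were neutral control wells for no effect and wells lacking membranes for full effect; tested at 10 µM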
Target sequence (Q03530 whole entry, looked up): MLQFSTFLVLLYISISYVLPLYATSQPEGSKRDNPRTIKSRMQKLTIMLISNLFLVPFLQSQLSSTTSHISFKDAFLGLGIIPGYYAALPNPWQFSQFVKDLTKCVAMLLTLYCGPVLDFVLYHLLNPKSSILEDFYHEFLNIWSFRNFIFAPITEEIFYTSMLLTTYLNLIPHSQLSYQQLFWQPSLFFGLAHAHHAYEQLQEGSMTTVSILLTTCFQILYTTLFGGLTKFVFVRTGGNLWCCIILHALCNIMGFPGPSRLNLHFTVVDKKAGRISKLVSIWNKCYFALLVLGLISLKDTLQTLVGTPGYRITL
MT1-MMP act inh RFP: also measured in MT1-MMP act inh; calls as there; RFP signal change, %; measured here: RFP expression control read;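 0 = vehicle wells; hits needed this value within 50% of zero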
Active calls of the source: *; i = inactive; . = not tested or not shown.

(1) CCCCn1ccnc1C(=O)c1cccc(S(=O)(=O)N2CC(C)CC(C)C2)c1 (centres undefined)
(2) Cc1ccc(OC(=O)c2ccc(Cl)c([N+](=O)[O-])c2)cn1
(3) O=C(CN1CCc2cc3c(cc2C1)OCCCO3)Nc1ccc(S(=O)(=O)N2CCCC2)cc1
(4) CCc1c(-c2ccccc2)nc(N)c(C#N)c1-c1cccs1
(5) Cc1nnsc1S(=O)(=O)Cc1ccccc1C(F)(F)F
(6) Cc1c(-c2cc(C(=O)O)on2)cnn1C
(7) CCn1nnnc1NCc1ccc(SC)cc1
(8) COc1ccc(C(CC(=O)Nc2ccccn2)N2Cc3ccccc3C2=O)cc1OC (centres undefined)

Assay by compound	1	2	3	4	5	6	7	8
MT1-MMP act inh	-8	2	-2	-7	3	0	-6	-1
MT1-MMP act inh RFP	-9	6	-6	-14	-2	1	1	3
CSC inhib	.	6	-3	-3	-11	-4	.	-8
PABP FP inh	8	17	3	-4	-4	4	-4	-4
HIV Env fusion	.	19	19	-24	7	6	12	-5
eIF4H inh	-7	-10	-2	-8	-2	-9	-6	1
Yeast UUG start	-14	-13	-2	-18	2	-4	9	-5
Rce1 inhib	i	i	i	i	i	i	i	i

(9) O=c1cc(Nc2ccc3c(c2)OCCO3)[nH]c(=O)n1Cc1ccc(F)cc1
(10) COC(=O)CCN(C)CCC(=O)OC
(11) O=C(Nc1ccc(-c2ccc(N3CCCCC3)nn2)cc1)c1ccco1
(12) Cc1ccc(C)c2[nH]c(=O)c(CCNC(=O)CC(C)C)cc12
(13) Cc1cc(-c2ccccc2)nc2cc(C(=O)OC(C)C)nn12
(14) COc1ccc(C(=O)NC2CCCc3c2cnn3-c2ccccc2F)cc1OC (centres undefined)
(15) O=C(Nc1cccc(-c2cccc(F)c2)c1)C1CCN(C2CCC2)CC1
(16) CS(=O)(=O)N(CC(=O)Nc1ccc(S(=O)(=O)N2CCCC2)cc1)c1cccc(F)c1

Assay by compound	9	10	11	12	13	14	15	16
MT1-MMP act inh	.	0	2	2	-1	1	-1	1
MT1-MMP act inh RFP	.	1	-4	1	3	-29	-1	0
CSC inhib	26	-18	.	-11	-4	-8	.	-3
PABP FP inh	0	-9	.	-6	-6	-1	8	-6
HIV Env fusion	.	.	-20	-9	-3	11	0	9
eIF4H inh	-4	-8	.	1	-3	-4	-10	2
Yeast UUG start	-19	-12	-12	-4	-13	0	-8	-7
Rce1 inhib	i	i	i	i	i	i	i	i

(17) CC(NS(=O)(=O)c1ccc(Cl)cc1)C(c1cccs1)N1CCN(C)CC1 (centres undefined)
(18) COc1ccc(NCc2ccsc2)cc1
(19) CCOC(=O)c1cn(-c2c(C)n(C)n(-c3ccccc3)c2=O)c2c(F)c(F)c(F)cc2c1=O
(20) C=CCn1c(SCC(=O)NCCCC(=O)OCC)nc2scc(-c3ccco3)c2c1=O
(21) NC(=S)NNC(=O)/C(=C/c1ccc(Br)cc1)NC(=O)c1ccccc1
(22) COc1cc(NC(=O)c2nccnc2C(=O)O)cc(OC)c1
(23) C/C1=C\CCC2C(/C=C(\C)CC1)OC(=O)C2CN1CCCCC1 (centres undefined)
(24) O=C(CCN1C(=O)c2ccccc2C1=O)NCc1ccc(F)cc1

Assay by compound	17	18	19	20	21	22	23	24
MT1-MMP act inh	-16	1	0	-12	2	5	-6	3
MT1-MMP act inh RFP	-4	3	5	4	-2	6	-8	9
CSC inhib	-4	-15	-6	1	-6	-10	16	-15
PABP FP inh	-2	-3	11	-11	0	-12	-4	-9
HIV Env fusion	.	-4	-2	6	1	10	11	14
eIF4H inh	-4	-8	-4	28	7	1	-11	-13
Yeast UUG start	-4	0	7	.	-29	5	-13	4
Rce1 inhib	i	i	i	i	i	i	i	i

5 compounds from above, limited to Rce1 inhib.
nr	canonical_smiles	Rce1 inhib
17	CC(NS(=O)(=O)c1ccc(Cl)cc1)C(c1cccs1)N1CCN(C)CC1 (centres undefined)	i
18	COc1ccc(NCc2ccsc2)cc1	i
19	CCOC(=O)c1cn(-c2c(C)n(C)n(-c3ccccc3)c2=O)c2c(F)c(F)c(F)cc2c1=O	i
20	C=CCn1c(SCC(=O)NCCCC(=O)OCC)nc2scc(-c3ccco3)c2c1=O	i
21	NC(=S)NNC(=O)/C(=C/c1ccc(Br)cc1)NC(=O)c1ccccc1	i

Next section
(25) O=C(CSc1n[nH]c(=O)[nH]c1=O)c1ccc(Cl)cc1Cl
(26) CCOc1cc(C(=O)NC2CCCCCCC2)cc(OCC)c1OCC
(27) COC(=O)c1ccc(CSc2nnc(NC(=O)C3CCCO3)s2)cc1 (centres undefined)
(28) Nc1c(N(CCO)C(=O)c2ccccc2OCc2ccccc2Cl)c(=O)[nH]c(=O)n1Cc1ccccc1
(29) Cc1ccc(OC(C)C(=O)Nc2ccccc2C(=O)N2CCOCC2)cc1 (centres undefined)
(30) C/C(=C\C(=O)c1ccccc1)Nc1ccc(N2CCOCC2)cc1
(31) CCCCCCc1nnc(NC(=O)c2ccco2)s1
(32) O=C1CCC(=O)N1CCC(c1ccc(F)cc1)c1ccco1 (centres undefined)

Assay by compound	25	26	27	28	29	30	31	32
MT1-MMP act inh	3	-4	3	-5	1	15	4	-3
MT1-MMP act inh RFP	-1	-3	-1	0	1	3	0	5
CSC inhib	-12	-7	-10	.	-37	16	19	-8
PABP FP inh	8	.	0	.	-1	8	-1	8
HIV Env fusion	17	0	.	1	-17	-25	-2	.
eIF4H inh	-13	.	-6	.	-1	0	-10	2
Yeast UUG start	.	.	.	-5	0	-7	-20	-9
Rce1 inhib	i	i	i	.	i	i	i	i

(33) C(=N\Nc1nc2ccccc2[nH]1)/c1ccc2c(c1)OCO2
(34) CCOc1ccc(CCNc2nc3ccc(C)cc3n3cnnc23)cc1OCC
(35) CC(=O)OC(C(=O)NC1CCCCC1)c1ccccc1 (centres undefined)
(36) CCOC(=O)C1CCN(Cc2ccc(F)cc2)CC1
(37) N/C(=N\OC(=O)Cc1ccc([N+](=O)[O-])cc1)c1cccc(Br)c1
(38) C/C(=N/OCO/N=C(\C)c1ccccc1)c1ccccc1
(39) O=C(N[C@@H]1c2ccccc2CC[C@@H]1OCc1ccccc1)c1ccc(-c2ccccc2)cc1
(40) O=C(CCN1C(=O)/C(=C/c2ccc(Cl)cc2)SC1=S)NC1C=CS(=O)(=O)C1 (centres undefined)

Assay by compound	33	34	35	36	37	38	39	40
MT1-MMP act inh	9	7	1	-5	-5	0	-7	-5
MT1-MMP act inh RFP	-4	-6	1	-2	-7	6	-3	2
CSC inhib	.	-26	-7	-4	7	-12	.	23
PABP FP inh	3	-4	-6	10	-8	1	.	-3
HIV Env fusion	-48	19	.	.	-25	9	32	2
eIF4H inh	-2	-14	10	12	-5	-5	.	7
Yeast UUG start	.	-10	-9	-16	.	-11	-18	-21
Rce1 inhib	i	i	i	.	i	i	.	i

(41) O=C(Nc1ccccc1)c1ccccc1CCc1ccccc1
(42) COC(=O)C1=NNCC12CC(=O)N(c1ccc(Br)cc1)C2=O (centres undefined)
(43) CC(C)c1ccc(NC(=O)CSc2ncccc2C(=O)Oc2cccc([N+](=O)[O-])c2)cc1
(44) CCOc1ccccc1NC(=O)[C@@H](NC(=O)c1cccc(S(=O)(=O)N2CCOCC2)c1)C(C)C
(45) Cc1onc(-c2c(F)cccc2Cl)c1C(=O)Nc1cccc(Cn2cccn2)c1
(46) CCOc1ccc(C(=O)NC2=NCCS2)cc1
(47) O=[N+]([O-])c1cc(CN2CCN(c3ccccc3)CC2)c(O)c2ncccc12
(48) Cc1onc(-c2c(F)cccc2Cl)c1C(O)c1ccc(F)cc1 (centres undefined)

Assay by compound	41	42	43	44	45	46	47	48
MT1-MMP act inh	-9	9	5	-1	5	.	-3	6
MT1-MMP act inh RFP	-3	8	2	0	4	.	-11	3
CSC inhib	.	7	1	1	7	-3	-5	-13
PABP FP inh	3	6	-7	-3	-10	-4	3	-12
HIV Env fusion	14	.	-38	21	.	-65	19	17
eIF4H inh	5	-4	-6	-1	-7	-6	16	0
Yeast UUG start	-4	.	.	6	-14	.	.	3
Rce1 inhib	i	i	i	i	i	i	i	i

(49) O=C(c1cnn(-c2ccccc2)c1)c1cc(Br)ccc1O
(50) COc1ccc(NC(=O)c2ccc(COc3ccccc3)o2)c(OC)c1
(51) CCOC(=O)C(NC(C)=O)C(=O)Nc1ccc(C(C)(C)C)cc1 (centres undefined)
(52) CCN(CC(=O)Nc1ccc(NC(C)=O)cc1)C(=O)C12CC3CC(CC(Cl)(C3)C1)C2
(53) CCOc1cc(N2CCOCC2)c(OCC)cc1NC(=O)COC(=O)CCOc1ccc(C)cc1
(54) Clc1nc(Nc2ccc(N3CCOCC3)cc2)c2ccccc2n1
(55) CCc1ccc(CN(C)C(=O)c2cc(COc3cc(C)c(Cl)c(C)c3)on2)nc1
(56) CCN(CC)Cc1c(C(=O)N/N=C/c2cccc(OCc3cccc(Cl)c3)c2)nnn1-c1nonc1N

Assay by compound	49	50	51	52	53	54	55	56
MT1-MMP act inh	-4	-2	1	-7	-2	0	1	2
MT1-MMP act inh RFP	-4	2	2	0	0	-5	-3	-2
CSC inhib	5	10	-7	1	-2	.	35	0
PABP FP inh	.	5	6	-6	.	-3	8	8
HIV Env fusion	-12	-4	7	-36	.	-4	16	-13
eIF4H inh	.	4	-5	-3	.	-7	-4	-8
Yeast UUG start	-22	-10	.	-9	5	.	-14	-3
Rce1 inhib	.	i	i	i	i	i	i	i

Gathered by group: the compounds so far containing bromine (4)
(21) NC(=S)NNC(=O)/C(=C/c1ccc(Br)cc1)NC(=O)c1ccccc1
(37) N/C(=N\OC(=O)Cc1ccc([N+](=O)[O-])cc1)c1cccc(Br)c1
(42) COC(=O)C1=NNCC12CC(=O)N(c1ccc(Br)cc1)C2=O (centres undefined)
(49) O=C(c1cnn(-c2ccccc2)c1)c1cc(Br)ccc1O

Assay by compound	21	37	42	49
MT1-MMP act inh	2	-5	9	-4
MT1-MMP act inh RFP	-2	-7	8	-4
CSC inhib	-6	7	7	5
PABP FP inh	0	-8	6	.
HIV Env fusion	1	-25	.	-12
eIF4H inh	7	-5	-4	.
Yeast UUG start	-29	.	.	-22
Rce1 inhib	i	i	i	.

Next results follow:
(57) COc1cc(-c2nnc(COC(=O)C3c4ccccc4Oc4ccccc43)o2)cc(OC)c1OC
(58) CCN1C(=O)C(CC(=O)N2CCN(C(c3ccccc3)c3ccccc3)CC2)N(CC)C1=O (centres undefined)
(59) CC(C)(C)NC(=O)COc1ccc(CNCc2ccccn2)cc1
(60) COc1ccc(N/N=C(\C#N)C(N)=O)cc1
(61) CCN(Cc1ccccc1)C(c1cc2cc(C)cc(C)c2[nH]c1=O)c1nnnn1CCOC (centres undefined)
(62) Cc1ccccc1NC(=O)Cn1c(=O)n(CC2CCCO2)c(=O)c2ccccc21 (centres undefined)
(63) CC(=O)Nc1ccc(Sc2ccccc2C(=O)N2CCCC2)cn1
(64) Cc1ccc(CN(CC(=O)NC(C)(C)C)C(=O)CNC(=O)c2cccs2)cc1
(65) COc1ccc(C2=NOC(C)(c3nnc(-c4ccccc4)o3)C2)cc1 (centres undefined)

Assay by compound	57	58	59	60	61	62	63	64	65
MT1-MMP act inh	0	-21	-4	1	-1	4	3	-5	4
MT1-MMP act inh RFP	1	-6	2	5	0	3	3	-5	-2
CSC inhib	-8	9	-4	-2	2	.	-2	-6	-2
PABP FP inh	2	4	1	9	27	7	-3	-4	.
HIV Env fusion	-57	-35	1	-31	.	-31	9	26	-6
eIF4H inh	-3	-3	3	-12	-2	2	-6	8	.
Yeast UUG start	-1	3	-11	.	-13	-17	.	.	1
Rce1 inhib	i	i	i	i	i	i	i	i	i

No enrichment for hits; any-hit rate near 2.9%.
